Bioassay records as filed in PubChem BioAssay.
Menin MLL FP FL: displaces fluorescein MLL peptide from human menin. FP activity change, % at 61.4 µM. 290,000 tested, under 10 active. AID 1766. Fluorescence polarization, fluorescein-MLL peptide displacement from menin; inconclusive = falling polarisation curve, or a change in total fluorescence; inactive = total fluorescence flat and polarisation flat or rising; no compound was filed as active; the % refers to the polarisation; negative = inhibition;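 further: % of control where 0% means no effect; inhibitors lower the polarisation; unlabelled MLL peptide was the positive control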
TRPV1 potentiator: human TRPV1 potentiation | TRPV1-expressing cells, Fluo-8 calcium influx, capsaicin EC20 potentiation; host cell line not named in the record; control for the full effect not named in the record | potentiation, % at 8.33 µM | 0.02% of 320,000 active; active means potentiation above 80%; inconclusive means 30% to 80%; inactive means below 30%; further: 0% is about no effect
Target sequence (Q8NER1 whole entry, looked up): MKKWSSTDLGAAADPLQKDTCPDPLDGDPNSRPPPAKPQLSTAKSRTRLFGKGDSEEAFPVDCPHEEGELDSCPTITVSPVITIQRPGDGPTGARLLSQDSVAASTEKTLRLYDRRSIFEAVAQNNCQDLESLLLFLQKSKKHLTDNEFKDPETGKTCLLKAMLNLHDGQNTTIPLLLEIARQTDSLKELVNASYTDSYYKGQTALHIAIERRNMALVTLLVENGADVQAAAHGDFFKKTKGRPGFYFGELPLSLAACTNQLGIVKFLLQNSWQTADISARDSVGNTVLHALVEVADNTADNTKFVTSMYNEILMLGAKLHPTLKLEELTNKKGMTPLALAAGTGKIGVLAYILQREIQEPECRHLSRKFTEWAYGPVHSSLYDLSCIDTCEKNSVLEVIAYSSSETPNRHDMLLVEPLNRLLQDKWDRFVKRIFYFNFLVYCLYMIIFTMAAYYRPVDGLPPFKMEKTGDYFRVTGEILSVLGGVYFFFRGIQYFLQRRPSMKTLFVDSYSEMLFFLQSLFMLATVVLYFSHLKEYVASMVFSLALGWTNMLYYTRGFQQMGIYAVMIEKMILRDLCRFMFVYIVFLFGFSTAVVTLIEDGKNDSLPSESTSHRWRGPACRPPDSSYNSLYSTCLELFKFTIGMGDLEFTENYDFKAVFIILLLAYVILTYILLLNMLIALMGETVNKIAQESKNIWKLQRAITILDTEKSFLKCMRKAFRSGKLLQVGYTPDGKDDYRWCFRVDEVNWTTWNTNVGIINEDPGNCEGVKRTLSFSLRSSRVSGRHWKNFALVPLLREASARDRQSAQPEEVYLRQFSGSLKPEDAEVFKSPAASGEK
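TRPV1-expressing cells were cultured overnight at 35.5C and loaded with Fluo-8 calcium dye for 40 to 90 min at room temperature. After a 10 s baseline, compound was added and calcium influx was read kinetically for 3 min (ex 480/em 520 nm).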
TRPML1 ag: agonists of human TRPML1 channel; Q9GZU1; TRPML1-expressing cells, Ca2+ dye fluorescence, FDSS; host cell line not named in the record; reference of the full effect not given here; activation, % (concentration not given with the values); 0.12% of 410,000 active; AID 624414; in the data active = activation above about 50%; inconclusive = about 30% to 50%; inactive = below about 30%; further: 0% is about no effect; the text of the record puts the active cut at 80%
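Agonist activity was taken from a 110 s kinetic Ca2+ dye read on the FDSS after pinning compounds onto TRPML1-DL cells. The cells were seeded at 1,500/well with Tet inducer, incubated about 16 h, then dye-loaded at room temperature.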
ClpP mod: qHTS Assay for Activators of ClpP; ATP-dependent Clp protease proteolytic subunit (Bacillus subtilis (strain 168)), P80244; purified B. subtilis ClpP, FRET peptide cleavage, 20 min; Potency, µM (doses to about 57.5 µM), without a hit: at the top dose activity change, negative = active; 1.9% of 340,000 active; active = well fitted falling curve with a large enough effect; inconclusive = small, poorly fitted or top-dose-only effect; inactive = no such curve, though single readings can be large or run the other way; further: potency means the concentration at half of the fitted maximal effect; the source files actives as falling curves though it sought activators and does not explain the sign; nearly all actives have a fitted effect of over 65% in size; many hits overshoot -100%
Target sequence (P80244 whole entry, looked up): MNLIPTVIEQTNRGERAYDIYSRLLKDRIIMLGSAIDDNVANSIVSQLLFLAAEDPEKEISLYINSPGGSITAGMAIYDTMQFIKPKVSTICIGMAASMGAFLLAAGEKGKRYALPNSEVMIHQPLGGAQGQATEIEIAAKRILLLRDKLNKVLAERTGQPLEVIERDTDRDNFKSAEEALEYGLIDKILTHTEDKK
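Purified B. subtilis ClpP, 10 microg/mL final in Tris/HCl pH8 with KCl, BSA, glycerol and Tween-20, cleaved an Abz/nitrotyrosine-quenched decapeptide. Fluorescence (ex 320, em 430) was read at 0 and 20 min at room temperature. Delta was normalized to 5.8 microM ADEP and DMSO/no-enzyme controls.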
Sfp inh: blocks B. subtilis Sfp PPTase activity. Q9F4F7. Biochemical Sfp PPTase activity, qHTS. Potency, µM, for the others: max response, negative = inhibition, hits mostly inhibitors. 3.5% of 310,000 active. AID 1490; active means well fitted inhibition curve with a large enough effect; inconclusive means small, poorly fitted or top-dose-only effect, or another doubt; inactive means no such curve, though single readings can be large or run the other way;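 further: the enzyme is Sfp with the accession as filed and its product quenches rhodamine fluorescence; potency means the concentration at half of the fitted maximal effect; 0% = enzyme reaction without inhibitor and -100% = no enzyme wells; top concentration of the series not given in the record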
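After 15 min at room temperature with compound, 15 nM Sfp received 5 uM rhodamine-CoA plus 12.5 uM BHQ-2-ybbR (50 mM Hepes pH 7.6, 10 mM MgCl2). Rate came from the fluorescence difference over 30 min, ex 525/em 598 nm.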
TRPML1 inh: blocks the human TRPML1 channel; 0.02% of 390,000 active; AID 624415; activity change, negative = inhibition, % (test concentration not listed); TRPML1-inducible cells, Ca2+ dye fluorescence, FDSS; stronger effect = lower value; inhibition of EC80 agonist-evoked calcium signal; Q9GZU1; in the data active means activity change below about -50%; inconclusive means about -30% to -50%; inactive means above about -30%;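 further: stimulus is agonist 54-4 at its EC80 concentration; on the % scale 0 is the no-effect control and ±100 the full control effect; compound concentration not given in the record; the text of the record puts the active cut at -80%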
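Tet-induced TRPML1-DL cells loaded with Ca8 no-wash calcium dye were read kinetically on FDSS. Compound addition was followed by EC80 agonist 54-4 (4 uM final); inhibition was read over 110 s.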
PINK1 modulator: modulators of PINK1 expression; PINK1 immunofluorescence, high-content cytometry, 24 h; Potency, µM (top dose mostly 76.6 µM), for inactives: at the highest dose activation (PINK1 increase), usual class: activators; 0.2% of 410,000 active; AID 624263; active = well fitted activation curve with a large enough effect; inconclusive = small, poorly fitted or top-dose-only effect; inactive = flat fitted curve, though single readings scatter; cell line not stated here;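 further: potency means the concentration at half of the fitted maximal effect; % of control where 0% means no effect; nearly all actives have a fitted effect of over 65% in size; a mitochondrial uncoupler was the plate control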
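PINK1 protein level read as immunofluorescence by microplate cytometer in a fixed, stained stable cell line after 24 h exposure to five compound concentrations, with CCCP as control.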
* marks the source's active call; other numbers are inactive results; ? = inconclusive; / = not tested or not shown; & = joins results of further samples; [ ] = another dose, or the depositor's remark.

Every second line gives: Menin MLL FP FL, TRPV1 potentiator, TRPML1 ag, ClpP mod, Sfp inh, TRPML1 inh, PINK1 modulator
> CC(CNC(=O)c1ccccc1[N+](=O)[O-])NC(=O)c1ccccc1[N+](=O)[O-] (stereo not drawn)
    /, /, 1.8, /, /, 25.6, 0.0%
> CC(/C=N/NC(=O)c1cc(-c2ccc3ccccc3c2)n[nH]1)=C\c1ccco1
    0.8, 6.4, 0.8, /, -3.6%, 7.0, 3.2%
> CC(=O)c1cccc(-c2ccnc3c2CC(C(=O)NCc2ccncc2)O3)c1 (stereo not drawn)
    /, /, -0.8, 3.8%, /, /, 4.3%
> CCN(CC)S(=O)(=O)c1cccc(-c2nnc(SCCCC(=O)c3ccccc3)o2)c1
    3.0, 1.3, 1.7, -1.3%, 9.2%, 22.6, /
> CCC(C(=O)Nc1cc(OC)ccc1OC)n1c(=O)c(C(F)(F)F)nc2ccccc21 (stereo not drawn)
    /, /, -0.7, -5.9%, /, 11.0, 3.0%
> COc1cccc(/C=C/c2nc(S(=O)(=O)c3ccccc3)c(N(C)C)o2)c1
    -1.6, -23.5, 2.7, 3.7%, -2.1%, 79.2, 0.6%
> Nc1nc2c(c(=O)[nH]1)C(c1cccc3ccccc13)C1=C(N2)c2ccccc2C1=O (stereo not drawn)
    -1.9, 1.6, 0.8, /, 56.2µM*, 8.2, 0.6%
> C=C(C)CCC1(C)NC(=O)N(c2ccccc2)N1 (stereo not drawn)
    4.3, /, 0.1, /, -9.1%, 17.4, 0.3%
> COc1ccc(Nc2nc(=O)[nH]nc2C)cc1
    2.0, 11.4, 0.9, 1.5%, 1.6%, 0.7, /
> COc1ccc(-n2ccn(Cc3ccccc3Cl)c(=O)c2=O)cc1OC
    /, /, -0.1, 0.3%, /, 23.6, 1.4%
> CCOC(=O)Nc1ccc(C(=O)NCC2CCCO2)cc1 (stereo not drawn)
    -0.9, /, -0.3, -1.2%, 2.1%, -6.7, 1.2%
> O=C(NCCC(c1ccccc1)c1ccccc1)c1ccc(Br)o1
    0.7, -0.6, 4.9, -2.4%, -4.2%, 23.9, -1.8%
> CC(=O)/C(=N\Nc1ccccc1)Sc1nncn1C
    /, -7.9, -0.4, 0.3%, 20µM*, -5.7, 1.7%
> O=c1nc2s/c(=C\c3ccco3)c(=O)n2nc1Cc1ccccc1
    17.9, -7.6, -0.8, 0.4%, 28.2µM*, 22.1, -0.4%
> CCCCN(CC)C(=O)c1cc2c(=O)n3cccc(C)c3nc2s1
    ?, -1.5, 1.7&2.0, 4.6%&4.6%, -1.7%, -18.3&26.1, 1.4%&5.7%
> Cc1c(CCC(=O)N[C@@H](CC(C)C)C(=O)O)c(=O)oc2cc3oc4c(c3cc12)CCCC4
    3.9, 2.1, 0.1, ?, 16.8%, -10.6, 0.2%
> CC(C)(C)C1CCC(=NNC(=S)Nc2cccnc2)CC1 (stereo not drawn)
    -8.0, -10.5, -0.8, /, ?, 4.6, 0.5%
> COc1ccc2oc(=O)c(C(=O)N3CCN(c4cc(Cl)ccc4Cl)CC3)cc2c1
    /, /, 2.4, -6.7%, /, -9.1, 0.0%
> COc1ccc(CNC(=O)c2nnn(Cc3ccc(OC)cc3)c2N)cc1
    1.1, 1.3, 0.4, -1.7%, -7.0%, -2.7, 7.3%
> C=CCN1CCN(C(=O)c2cc3c(s2)CCCC3)CC1
    /, 11.0, -0.9, 0.2%, 13.2%, -0.9, 2.7%
> CN1C(=O)c2cccc(NC(=O)CCc3ccccc3)c2C1=O
    -1.4, 0.3, -0.8, ?, -10.8%, 12.0, 1.1%
> Fc1ccc(CNCc2ccco2)cc1
    -6.7, 18.6, -0.6, -1.2%, -20.1%, -6.4, -1.4%
> COc1ccc(Nc2oc(-c3ccccc3)nc2C#N)cc1
    -1.1, -4.8, -0.2, 4.4%, 10.0%, -10.9, 11.3%
> CCOc1cc(/C=C2\SC(=O)N(CC(=O)Nc3ccccc3F)C2=O)cc([N+](=O)[O-])c1O
    3.3, 11.3, 4.7, /, -15.7%, -1.1, -0.4%
> CCOC(=O)c1c(NC(=O)COc2ccc(C(C)(C)C)cc2)sc2c1CCCC2
    /, /, 1.4, -2.8%, /, 29.9, 4.5%
> COCCNC(=O)c1cnc2sc(N3CCCCC3)nn2c1=O
    /, /, -0.2, 4.1%, /, 12.4, 1.1%
> CCc1ccc(NC(=O)c2cnc(SC)nc2C)cc1
    9.1, -1.1, 3.1, -4.7%, 12.0%, 3.2, 0.2%
> Cc1ccc(/C(C#N)=C\c2cn(C)c3ccccc23)cc1
    -0.6, -10.8, /, /, -3.5%, /, /
> Nc1nonc1-c1nc2ccccc2n1Cc1ccc(Br)cc1
    /, /, 4.7, 5.0%, /, 20.5, 3.4%
> O=C(NCCOc1ccccc1)C1CCC(=O)N(CCc2ccccn2)C1 (stereo not drawn)
    -1.3, 3.3, -0.5, -1.2%, 15.3%, 4.1, -1.6%

Continued, overlapping the part above by 2 compounds.
Every second line gives: Menin MLL FP FL, TRPV1 potentiator, TRPML1 ag, ClpP mod, Sfp inh, TRPML1 inh, PINK1 modulator
> Nc1nonc1-c1nc2ccccc2n1Cc1ccc(Br)cc1
    /, /, 4.7, 5.0%, /, 20.5, 3.4%
> O=C(NCCOc1ccccc1)C1CCC(=O)N(CCc2ccccn2)C1 (stereo not drawn)
    -1.3, 3.3, -0.5, -1.2%, 15.3%, 4.1, -1.6%
> CCOc1cc(-c2noc(CCC(=O)NCCc3ccccc3)n2)ccc1OC
    0.6, 4.6, 0.5, 0.2%, 21.4%, -18.1, 1.3%
> C[C@]12CCC(=O)C=C1[C@H](O)C[C@@H]1[C@@H]2[C@@H](O)C[C@@]2(C)[C@H]1CC[C@]2(O)C(=O)CO
    3.6, -0.9, 0.6, -0.2%, -6.8%, -3.1, 4.5%
> O=C(Nc1ccc(S(=O)(=O)Nc2ncccn2)cc1)C(F)(F)F
    -11.3, 3.5, -0.2, /, 5.3%, 24.2, 1.4%
> Cc1ccc(-n2ccn(CC(=O)c3ccc(F)cc3)c(=O)c2=O)cc1C
    /, /, 1.5, -3.0%, /, -25.1, 0.2%
> O=C(CCS(=O)(=O)c1ccccc1)Nc1ccc(-c2nc3ccccc3s2)c(O)c1
    7.0, -5.9, 0.7, 0.7%, 14.6%, -7.5, 2.4%
> O=C1CSC(=Nc2cccc(Cl)c2Cl)N1
    4.7, 0.4, 1.9, /, -3.3%, -3.6, -1.2%
> Cc1ccnc(NC(=O)CCN2C(=O)c3ccccc3S2(=O)=O)n1
    /, 2.8, -0.1, 0.3%, /, 7.2, 2.9%
> Cc1ccccc1-n1c(=O)c2ccccc2n2c(=O)[nH]nc12
    2.3, -58.5, 2.3, -2.6%, -2.4%, -3.1, -0.3%
> Cc1ccc2c(CNCc3cccs3)c(C(=O)O)n(Cc3ccc(F)cc3)c2c1
    /, /, 1.5, -15.7%, /, -0.7, -0.4%
> CCCCC(CC)CNC(=O)CCCc1nnc2n(CCC)c(=O)c3sccc3n12 (stereo not drawn)
    /, /, 1.7, -15.9%, /, -16.3, 0.1%
> CC1CC2(C)Oc3ccccc3C3OCC1(CO)C(C)C32 (stereo not drawn)
    5.2, 7.2, -0.6, 0.2%, 4.7%, -1.6, 2.8%[38.3 µM]
> CC(=O)Nc1ccc(NS(=O)(=O)Cc2ccccc2)cc1
    1.8, -5.7, 0.0, -1.4%, 16.5%, -3.5, 5.9%
> COc1ccc(C2(NC(C)=O)CCN(C(=O)c3ccco3)CC2)cc1
    1.5, -10.4, 0.8, -4.6%, 13.0%, 8.0, -1.7%
> Cc1ccc(NC(=O)CCn2c(=O)c3cccn3c3ccccc32)c(C)c1
    5.3, -1.3, -1.0, -4.8%, -10.8%, -9.3, 1.9%
> COc1cccc(N2CC(NC(=O)C(c3ccccc3)c3ccccc3)CC2=O)c1 (stereo not drawn)
    /, /, -0.4, -3.2%, /, 1.3, 1.2%
> Cc1cccc(-c2nnn3c2nc(NCc2ccccc2)c2ccccc23)c1
    /, /, -0.9, -22.4%, /, -0.3, 1.2%
> COc1ccc(C)cc1NC(=O)COCC(=O)O
    1.0, 0.5, 0.2, -0.2%, 10.5%, 17.1, 0.5%[38.3 µM]
> COc1ccc(NC(=O)CC2C(=O)N(c3ccc(C)cc3)C(=O)N2Cc2cccnc2)cc1 (stereo not drawn)
    /, /, -0.5, 2.7%, /, -8.9, 1.5%
> COc1ccc(C)cc1NC(=O)c1nn(C)c(C(=O)Nc2cc(C)ccc2OC)c1[N+](=O)[O-]
    0.6, 10.2, 0.6, 1.6%, 4.1%, -9.3, 2.0%
> O=C(c1ccccc1Cl)N(Cc1ccc(Cl)c(Cl)c1)N1C(=O)CCCC1=O
    2.1, -17.9, 1.1, 1.0%, 6.9%, 30.2, 0.7%
> CC(C)(C)C(=O)Nc1cc(S(=O)(=O)Nc2ccc(Cl)cc2)ccc1O
    -4.0, 0.7, 2.8, /, 9.1%, 44.2, 5.9%
> Cc1nn(C)c(C)c1S(=O)(=O)N1CCCC(C(=O)NCCc2ccc(Cl)cc2)C1 (stereo not drawn)
    1.6, 19.2, -0.3, 1.6%, 6.7%, -3.7, 1.0%
> Cc1nc2sc(C(c3cccs3)N3CCOCC3)c(O)n2n1 (stereo not drawn)
    3.9, 22.5, 0.0, -0.3%, 18.9%, -5.4, 3.3%
> CCCCN(C(=O)c1c(C)noc1C)c1c(N)n(CCC)c(=O)[nH]c1=O
    /, 8.8, 0.1, 0.2%, /, 0.4, 1.2%
> CCCCS(=O)CC(COC)OC(=O)c1ccccc1 (stereo not drawn)
    -0.3, -3.2, 0.6, 0.5%, 0.6%, -2.6, 0.9%
> CCC(=O)N1CCCc2cc(S(=O)(=O)N3CCC(C(=O)Nc4ccc(C#N)cc4)CC3)ccc21
    /, /, -0.7, -2.1%, /, 7.5, -0.8%
> O=C(N/N=C/c1cc(Br)cc([N+](=O)[O-])c1O)c1ccc(NC(=O)c2ccc(F)cc2)cc1
    9.3, -10.6, 1.2, -1.1%, 22.2%, -3.8, 1.9%
> CSc1ccccc1NS(=O)(=O)c1ccccc1
    4.5, -4.4, 0.2, 3.6%, -9.2%, 1.6, 2.6%
> CN(Cc1ccccc1)C(=O)CN(C1CCCCC1)S(C)(=O)=O
    1.1, 18.6, -0.1, -0.7%, 6.4%, 7.3, -0.5%
> Cc1cc(Cl)ccc1OCC(=O)Nc1nc(-c2cccs2)cs1
    1.4, 4.0, 0.7, 0.9%, 2.8%, -13.1, 13.1%
